# UCH37 inh – inhibitors of human UCH37 deubiquitinase, primary screen, biochemical, Ub-AMC cleavage, fluorescence. Ubiquitin carboxyl-terminal hydrolase isozyme L5 (Homo sapiens), Q9Y5K5. purified proteasome/UCH37. inhibition, % (concentration not given with the values). 0.33% of 330,000 active. AID 588478, 2011;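 active means mean of two replicates above 20%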;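 further: 0% = compound-free wells with enzyme and 100% = wells lacking proteasome; stock transfer was 100 nL into about 20 µL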
# Target sequence (Q9Y5K5 whole entry, looked up): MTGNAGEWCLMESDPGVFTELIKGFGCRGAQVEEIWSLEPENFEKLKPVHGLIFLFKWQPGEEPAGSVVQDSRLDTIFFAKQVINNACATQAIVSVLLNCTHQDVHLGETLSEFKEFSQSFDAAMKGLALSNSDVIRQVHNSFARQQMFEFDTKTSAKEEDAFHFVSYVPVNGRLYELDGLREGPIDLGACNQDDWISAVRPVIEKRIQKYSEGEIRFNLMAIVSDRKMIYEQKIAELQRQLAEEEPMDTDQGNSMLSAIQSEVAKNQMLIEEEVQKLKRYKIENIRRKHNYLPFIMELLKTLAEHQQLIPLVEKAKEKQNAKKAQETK
#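 Reagent: Ub-AMC substrate; assay system: Proteasome-associated human UCH37 deubiquitinase; controls: no-proteasome and no-compound wells; read-out: % inhibition of Ub-AMC cleavage fluorescence; timing: 30 min preincubation with enzyme, 25 min cleavage at room temperature; signal: AMC fluorescence from Ub-AMC cleavage, excitation 355 nm, emission 460 nm; buffer or medium: Tris-HCl pH 7.4 plus ovalbumin, ATP-MgCl2, DTT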
# Starred values were filed as active, the others as inactive.
UCH37 inh	SMILES
2.6	Cc1[nH]c2ccccc2c1C=NNC(=O)c1cccc([N+](=O)[O-])c1
-1.8	COc1ccc(C2=CSC(N=Cc3ccc(F)cc3)=NN2)cc1
-43	CC(=NNC(=O)c1ccc(CSc2cccc3cccnc23)cc1)C1CCCCC1
4.3	CC(=NN1C(=O)c2ccccc2NC1c1ccccc1)c1ccccc1O (stereo not given)
4.2	O=C(NN=Cc1ccccc1F)c1ccccc1OCc1ccccc1
2.4	Cc1cccc(OCC(=O)NCC(=O)NN=Cc2ccc(O)cc2O)c1
2.6	O=C(NN=Cc1cccc(O)c1)c1csc2ccccc12
-104	Cc1cccc(S(=O)(=O)c2c(N)n(N=Cc3cccnc3)c3nc4ccccc4nc23)c1
4.5	CCOC(=O)NN=Cc1cn(Cc2ccc(Cl)cc2)c2ccccc12
4.5	CCC1SC(=NN=Cc2ccco2)N(Cc2ccccc2)C1=O (stereo not given)
3.5	CC(=NNC(=O)c1cc(-c2ccc(Br)s2)[nH]n1)c1ccncc1
-1.3	CC(Nc1ccc2ccccc2c1)C(=O)NN=Cc1ccncc1 (stereo not given)
6.7	O=C(NN=Cc1ccco1)c1cccc([N+](=O)[O-])c1
-9.1	COc1cccc(C=NNC(=O)CC(=O)NCCc2ccccc2)c1OC
1.8	COc1ccc(C=NNc2ccc(C(F)(F)F)cc2[N+](=O)[O-])cc1
7.8	CC(C)c1cc(C(=O)NN=C/C(Br)=C/c2ccccc2)n[nH]1
7.5	CCOc1cc(C=NNC(=O)c2ccncc2)ccc1OC(=O)c1ccco1
1.7	CC(=NNC(=O)c1cc(-c2cccnc2)nc2ccccc12)c1ccc(O)cc1O
5.1	CCc1cc2c(nc1CC)CCN(CCC(C)=NO[C@@H](C)c1cc(-c3c(C)cc(C)cc3C)no1)C2
4.7	O=C(O)c1cccc(NN=Cc2cn(-c3ccccc3)nc2-c2cccs2)c1
4.0	O=C(CSc1nnc(SCc2ccc(Cl)cc2)s1)NN=Cc1ccc(Cl)cc1Cl
0.7	O=C(COc1ccc(C=NNC(=O)C(=O)N2CCCCC2)cc1)Nc1ccccc1Cl
-8.5	CC(C)(C)c1ccc(OCc2ccc(C(=O)NN=Cc3ccc(O)c(O)c3)cc2)cc1
9.1	CC(=NNC(N)=S)c1ccc(Br)s1
3.7	O=C(NN=Cc1ccc2c(c1)OCO2)c1ccc2c(c1)OCCO2
-13	COc1cccc(C=NNC(=O)c2oc3nc(-c4ccccc4)cc(-c4ccco4)c3c2N)c1
6.8	O=C(CN1CCOCC1)NN=Cc1cc2ccccc2nc1Cl
4.1	CC(CC(=O)N1CCN(C=O)CC1)=NNC(=O)c1ccc([N+](=O)[O-])cc1
5.4	O=C(COc1c(Br)cc(Br)cc1Br)NN=Cc1ccco1
2.4	Cc1ccc(C=NNC(=O)Cc2cccn2C)cc1
2.2	Cc1ccc(N2CCN(N=Cc3ccncc3)CC2)cc1
3.2	COc1ccc(C=NNc2nc(=O)[nH]nc2C)cc1[N+](=O)[O-]
2.0	COc1cccc(C(=O)NCC(=O)NN=Cc2cccc(OC(=O)c3ccc([N+](=O)[O-])cc3)c2)c1
4.6	Nc1nonc1-n1nnc(C(=O)NN=Cc2cccnc2)c1-c1cccs1
13	CCCC1S/C(=N/N=Cc2ccco2)NC1=O (stereo not given)
9.5	O=C(O)Cc1sc(NN=Cc2ccncc2)nc1-c1ccccc1
7.2	CCOC(=O)c1cc(CC)sc1N=Cc1c(O)ccc2ccccc12
1.4	Cc1c(C=NNC(=O)C2(O)c3ccccc3-c3ccccc32)cnn1C
-0.7	Cc1cccc(OCC(=O)NN=Cc2ccc3c(c2)OCO3)c1
3.6	Cc1ccc(NCC(=O)NN=Cc2cccc(Br)c2)cc1
0.4	CCCCCC=NNC(=O)Cc1ccc([N+](=O)[O-])cc1
5.9	COc1ccc(C=N/N=C2/NC(=O)C(CC(=O)NC(C)C)S2)cc1 (stereo not given)
0.0	O=S1CCC(=NO)c2ccccc21 (stereo not given)
4.3	CC(=NNc1nc2ccc(Cl)cc2o1)c1ccccc1
4.2	O=C(Cc1c(F)cccc1Cl)NN=Cc1cccnc1
4.0	C/C(C=NNC(=O)c1cccs1)=C/c1ccccc1
1.7	Nc1nnnn1N=Cc1ccccc1O
1.2	CSc1ccc(C=Nn2c(C)nc3ccccc3c2=O)cc1
3.3	COc1cccc(C=Nn2c(-c3cc(C)[nH]n3)n[nH]c2=S)c1O
2.3	CC(=NN=C1SCC(=O)N1c1ccccc1)c1ccc(C)cc1
10	CCOC(=O)NN=Cc1ccc([N+](=O)[O-])o1
12	CC(=O)C=NNc1ccccc1
7.3	O=C(NN=Cc1ccc2c(c1)OCCO2)c1ccncc1
5.3	Cc1nnc(C)n1N=Cc1cccnc1
-4.1	CCNC(=S)NN=Cc1ccc(-c2ccccc2)o1
9.0	C(=NNC1=Nc2cccc3cccc1c23)c1cccnc1
12	COCCCn1c(O)c(/C=C2/N=C(C#N)C(=Nc3ccc(C)cc3)O2)sc1=S
8.3	S=c1[nH]nc(-c2ccccc2)n1N=Cc1ccc(Cl)cc1
0.2	CCc1n[nH]c(=S)n1N=Cc1c(C)nn(-c2ccccc2)c1Cl
5.0	C=CCNC(=S)N=c1sccn1C

# The listing continues.
UCH37 inh	SMILES
-11	Cc1ccc(C=NNC(=O)c2ccc(NC(=O)c3ccc(Cl)cc3)cc2)o1
4.5	O=C(CSc1ncn[nH]1)NN=Cc1ccc(F)cc1
4.3	CC(=NNS(=O)(=O)c1ccc(C)c([N+](=O)[O-])c1)c1ccc2c(c1)OCO2
-8.1	Cc1occc1C(=O)NN=CC1=C(N2CCOCC2)/C(=C\c2ccc(Cl)cc2)CC1
11	COc1ccc(C=NNc2ccccn2)c(OC)c1OC
-9.4	N#CCCNN=C(Cc1nc2ccccc2[nH]1)c1ccccc1
2.6	CC(=NNC(=S)NCc1ccccc1)c1cccs1
2.3	COc1ccc(OCc2ccc(C=NNC(=O)c3sccc3C)o2)cc1
3.7	COc1cc(C(C)=NN2CCOCC2)cc(OC)c1OC
3.8	Cc1ccc(S(=O)(=O)N=Cc2ccc(N(C)C)cc2)cc1
3.8	O=C(Cc1cccc2ccccc12)NN=Cc1ccc2cccc(O)c2n1
5.7	CCOc1ccc(C=NNc2cc(C)nc(N3CCOCC3)n2)cc1
9.0	Cc1ccn2c(C(=O)NN=Cc3ccc(Cl)cc3)c(C)nc2c1
-19	COc1cc(C=NNC(=O)c2nnn(-c3nonc3N)c2C(C)C)ccc1OCc1ccc(F)cc1
3.8	COc1ccc(C(=O)ON=C2CCS(=O)(=O)c3sccc32)cc1
-12	COc1ccc(C=NNC(=O)c2csc(-n3nc(C)cc3C(F)(F)F)n2)cc1
-0.4	O=C(NN=Cc1cccc(OC2CSC2)c1)c1ccccc1O
-3.6	Oc1ccc(C=NNc2ccc(C(F)(F)F)cn2)cc1
2.8	CC(C)(NO)C(=NO)c1ccc(Cl)cc1
3.1	CC(=NNc1nc(C(C)(C)C)cs1)c1ccc(O)cc1
5.3	COC(=O)NN=Cc1cccc(OC(=O)c2cccs2)c1
7.3	CNC(=O)N(O)C1N(N=Cc2ccc(N(C)C)cc2)C(=S)SC1(C)C (stereo not given)
4.3	Cc1ccc(-c2ccc(C=NNC(=O)c3cc4c(ccc5ccccc54)o3)o2)cc1[N+](=O)[O-]
1.0	O=C(ON=C(c1ccccc1)c1ccccn1)c1cccc2ccccc12
-3.2	Cc1ncc(CO)c(C=NNc2cccc(Cl)n2)c1O
-0.6	O=C(NN=CC1CC=CCC1)c1cc2ccccc2cc1O (stereo not given)
-2.3	COc1cc(C=NNc2cccc3cccnc23)cc(OC)c1O
11	O=C1C(Cc2ccccc2)SC(=NN=Cc2ccco2)N1c1ccccc1 (stereo not given)
6.4	C=CCOc1ccc2cccc(C=NNC(=O)c3cc4cc([N+](=O)[O-])ccc4s3)c2c1
-0.3	O=C(NN=C1CCc2ccccc21)c1ccc(O)cc1
1.6	Cc1nn(C)c(C(=O)NN=Cc2ccccc2)c1[N+](=O)[O-]
1.9	CC(=NNC(=O)Cc1c(C)[nH][nH]c1=O)c1ccc(O)cc1
-7.0	COc1ccc(OC)c(C=NNC(=O)c2ccc(COc3ccc(C)cc3[N+](=O)[O-])o2)c1
4.2	Cc1ccc(S(=O)(=O)N(CC(=O)NN=Cc2cccc(Cl)c2)c2cccc3cccnc23)cc1
11	CN(C)c1ccc(C=Nn2c(-c3cccnc3)n[nH]c2=S)cc1
-286	CC(C)OCCCNC(=O)c1c(N)n(N=Cc2cccs2)c2nc3ccccc3nc12
-0.3	C=CCN1C(=O)C(=Nn2cnnc2)c2ccccc21
1.7	CC(=NNC(=O)CC1N=C(Cc2ccccc2)NNC1=O)c1ccccc1 (stereo not given)
-0.4	CCOC(=O)NN=Cc1ccc(OC(=O)c2ccco2)cc1
9.3	COc1ccccc1C=NNc1nccnc1Cl
6.0	CCNC(=S)NN=C(C)c1cccc(C(F)(F)F)c1
6.3	Cc1ccc(-n2c(SCC(=O)NN=Cc3ccccc3OCC(=O)O)nc3ccccc3c2=O)cc1
8.1	O=C(CCCOc1ccc(Cl)cc1Cl)NN=Cc1ccc(Cl)cc1
1.0	CS/C(N)=N/N=Cc1c(O)ccc2ccccc12
-0.2	COc1ccc(C(=O)NN=C(C)c2cccc(NC(=O)C(F)(F)F)c2)cc1
0.5	COc1ccc(C=Nn2c(C)nnc2C)c(OC)c1OC
4.5	CNC(=O)C(=O)NN=Cc1cccnc1
1.4	CC(C)(C)c1ccc(OCC(=O)NN=Cc2ccsc2)cc1
5.7	CCNC(=S)NN=C(C)c1ccc2ccccc2c1OC(F)F
6.1	Cc1nn(-c2ccccc2)c(Cl)c1C=NNc1ccc(Cl)c(C(=O)O)c1
3.3	Nc1nonc1-n1nnc(C(=O)NN=Cc2cccc(Cl)c2)c1-c1ccc2c(c1)OCO2
3.9	Cc1ccc(S(=O)(=O)Nc2ccccc2C=Nc2nc3ccccc3n2C(C)C)cc1
6.7	S=c1[nH]nc(-c2cccnc2)n1N=Cc1ccccc1
2.0	COc1cc(C=NNC(=O)C2CC(=O)N(c3ccc(C)cc3)C2)cc(OC)c1OC (stereo not given)
-0.6	Nc1nonc1-n1nnc(C(=O)NN=Cc2cccc(F)c2)c1CN1CCCCCC1
-22	Cc1ccc(C=NNC(=O)c2nnn(-c3nonc3N)c2C(C)C)s1
-13	COc1cccc(C(=O)Oc2ccc(C=NNC(=O)c3ccncc3)cc2OC)c1
14	CC1(C)CC(=O)C(C=Nc2ncccc2C(=O)O)=C(O)C1
0.9	CC(=NO)C(C)Oc1ccc(Cl)cc1 (stereo not given)
3.6	ON=Cc1cc(Cl)ccc1OCc1ccccc1Cl

# Continuation:
UCH37 inh	SMILES
7.3	O=C(NN=Cc1ccncc1)c1ccc(NS(=O)(=O)c2cccs2)cc1
3.3	CSc1nncc(C(C)=NO)n1
8.7	O=[N+]([O-])c1ccc(S(=O)(=O)NN=Cc2ccsc2)cc1
6.4	Cc1ccc(C=NNC(=O)c2nnn(-c3nonc3N)c2CNc2ccccc2)cc1
4.5	COc1ccccc1N1CCN(N=C/C=C/c2ccccc2[N+](=O)[O-])CC1
5.6	COc1ccc(C(=O)Nc2cccc(C(C)=NNC(=O)c3ccc([N+](=O)[O-])c(C)c3)c2)cc1OC
1.8	O=C(CSCc1ccc([N+](=O)[O-])cc1)NN=Cc1ccncc1
2.6	O=C(CCNc1n[nH]c(=O)[nH]c1=O)NN=Cc1ccc(C(F)(F)F)cc1
-232	CCN(CC)c1ccc(C=NNC(=O)C(O)c2ccccc2)cc1 (stereo not given)
-3.3	CCc1n[nH]c(=S)n1N=Cc1ccc(N(CC)CC)cc1
5.6	COc1ccccc1/C=C/C=NN1CCN(Cc2cccc3ccccc23)CC1
3.1	CC(=NNC(=S)NCc1ccccc1)c1ccccc1
10	CC(C)(C)c1nnc(NN=Cc2ccccc2O)n(N)c1=O
3.4	CC(=NNC(=O)c1cccnc1)c1ccc(Br)cc1
2.9	CCOc1ccccc1C(=O)NN=Cc1ccoc1
3.7	Cc1ccc(CN2CCN(N=Cc3cccnc3)CC2)c(C)c1

# By substructure, the entries above with a thiophene ring, fused or not (17)
UCH37 inh	SMILES
2.6	O=C(NN=Cc1cccc(O)c1)c1csc2ccccc12
3.5	CC(=NNC(=O)c1cc(-c2ccc(Br)s2)[nH]n1)c1ccncc1
4.7	O=C(O)c1cccc(NN=Cc2cn(-c3ccccc3)nc2-c2cccs2)c1
9.1	CC(=NNC(N)=S)c1ccc(Br)s1
4.6	Nc1nonc1-n1nnc(C(=O)NN=Cc2cccnc2)c1-c1cccs1
7.2	CCOC(=O)c1cc(CC)sc1N=Cc1c(O)ccc2ccccc12
4.0	C/C(C=NNC(=O)c1cccs1)=C/c1ccccc1
2.6	CC(=NNC(=S)NCc1ccccc1)c1cccs1
2.3	COc1ccc(OCc2ccc(C=NNC(=O)c3sccc3C)o2)cc1
3.8	COc1ccc(C(=O)ON=C2CCS(=O)(=O)c3sccc32)cc1
5.3	COC(=O)NN=Cc1cccc(OC(=O)c2cccs2)c1
6.4	C=CCOc1ccc2cccc(C=NNC(=O)c3cc4cc([N+](=O)[O-])ccc4s3)c2c1
-286	CC(C)OCCCNC(=O)c1c(N)n(N=Cc2cccs2)c2nc3ccccc3nc12
1.4	CC(C)(C)c1ccc(OCC(=O)NN=Cc2ccsc2)cc1
-22	Cc1ccc(C=NNC(=O)c2nnn(-c3nonc3N)c2C(C)C)s1
7.3	O=C(NN=Cc1ccncc1)c1ccc(NS(=O)(=O)c2cccs2)cc1
8.7	O=[N+]([O-])c1ccc(S(=O)(=O)NN=Cc2ccsc2)cc1

# A draw from above in order of heavy-atom count, descending.
UCH37 inh	SMILES
5.6	COc1ccc(C(=O)Nc2cccc(C(C)=NNC(=O)c3ccc([N+](=O)[O-])c(C)c3)c2)cc1OC
4.5	COc1ccccc1N1CCN(N=C/C=C/c2ccccc2[N+](=O)[O-])CC1
2.9	CCOc1ccccc1C(=O)NN=Cc1ccoc1

# Source: PubChem

# Some of the compounds tested. The share of hits here may be higher or lower than overall.
